PINK1 modulator: modulators of PINK1 expression; PINK1 immunofluorescence, high-content cytometry, 24 h; Potency, µM (highest dose often 76.6 µM), for the others: at the top dose activation (PINK1 increase), hits mostly activators; actives 0.2% (n = 410,000); AID 624263; active = well fitted activation curve with a large enough effect; inconclusive = small, poorly fitted or top-dose-only effect; inactive = flat fitted curve, though single readings scatter; cell line not stated here;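 note: % of control where 0% means no effect; nearly all actives have a fitted effect of over 65% in size; a mitochondrial uncoupler was the plate control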
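Measures PINK1 amount and localization on or inside mitochondria by immunofluorescence. Stable cells get compounds at 5 concentrations for 24 hours before fixation and staining; CCCP controls included.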
Numbers without * were called inactive; u = inconclusive. Potency is the fitted concentration of half-maximal effect.

PINK1 modulator	mol
4.2%	O=C(CCCN1C(=O)C(c2ccccc2)Oc2cccnc21)Nc1ccc(Br)cc1F (stereo unspecified)
-1.1%	COc1ccc(C(=O)Nc2nc3ccc(S(=O)(=O)N4CCCC4)cc3s2)cc1
0.2%	CCCCOc1ccc(S(=O)(=O)Nc2cccc(-c3ccc(N4CCOCC4)nn3)c2)cc1
1.2%	Cc1cc(C)cc(Oc2nc3c(c(=O)n(C)c(=O)n3C)n2Cc2ccc(F)cc2)c1
-1.2%	Cc1oc(-c2cccc(Cl)c2)nc1CN1CCC(C(=O)NCCCN2CCN(c3ccccc3F)CC2)CC1
1.0%	CCc1ccc(OCC(=O)Nc2c(C(=O)c3ccccc3)oc3ccccc23)cc1
u	Cc1ccc(-c2cc3nccc(-c4cc([N+](=O)[O-])ccc4O)n3n2)cc1
1.3%	CCSc1nnc2c(n1)OC(CC)N(C(C)=O)c1ccccc1-2 (stereo unspecified)

Continuation.
PINK1 modulator	mol
0.7%	O=C(C[N+]1(CCO)CCOCC1)c1ccc2ccccc2c1
6.0%	Cc1cc(C)cc(C(=O)Nc2ccc(-c3cn4cccnc4n3)cc2)c1
7.7%	COc1cc(OC)cc(C(=O)Nc2cc3nn(-c4ccccc4)nc3cc2Cl)c1
2.0%	Cc1cc(C)cc(NC(=O)C2CCCN(C(=O)c3cnn(-c4ccccc4)c3-n3cccc3)C2)c1 (stereo unspecified)
4.8%	Cc1cc(NC(=O)CSc2nc3c([nH]c4ccccc43)c(=O)n2-c2ccccc2)no1
u	C=Cc1ccc(Cn2c(C(=O)O)c(CNCCc3ccccc3)c3ccc(C)cc32)cc1
-0.8%	COc1ccc2c(c1)sc1ncc(C(=O)NCc3cccc(C)c3)c(=O)n12
0.5%	CCCCN(C)C(=O)c1ccc2c(c1)N(Cc1cccc(Cl)c1)C(=O)c1ccccc1S2=O (stereo unspecified)

More records
PINK1 modulator	mol
0.2%	COc1ccc(CCN2C(=O)N(c3ccc(F)cc3)C(=O)C2CC(=O)Nc2ccc(OC)cc2)cc1 (stereo unspecified)
6.7%	CCN1CCN(Cc2c(O)ccc3oc(C)c(C(=O)Nc4cccc(C(F)(F)F)c4)c23)CC1
0.7%	Cc1cccc(-c2cnc(C)nc2C2CCCN(C(=O)c3cccc(Cn4cccn4)c3)C2)c1 (stereo unspecified)
1.6%	COc1ccccc1Cc1nc2ccccc2nc1SCC(=O)Nc1ccc2c(c1)OCO2
-0.4%	CC(=O)N[C@@H](C)C(=O)NCC1Cc2cc(C)cc(-c3cnccn3)c2O1 (stereo partly specified)
-2.0%	CC(=O)N1CCCc2cc(S(=O)(=O)N(C)CC(=O)Nc3ccc(Cl)cc3C)ccc21
0.1%	COc1ccc(CC(=O)Nc2ccc(-c3nc4ccccc4s3)cc2Cl)cc1
7.6%	CCN1C(=O)C(Cc2nc3ccccc3c(=O)n2-c2ccccc2)c2cc(Br)ccc21 (stereo unspecified)

(next part)
PINK1 modulator	mol
2.0%	Cc1ccccc1OC(=O)CSc1nnc(-c2ccc(F)cc2)o1
0.2%	CC(C)(O)C#Cc1ccc(CN2CCc3nnc(CNC(=O)c4cccc(F)c4)n3CC2)cc1
6.3%	Cc1cccc(NS(=O)(=O)c2ccc(NC(=O)N3CCCC3)cc2)c1
-2.7%	COc1cc2c(cc1OC)C(COc1ccccc1OC)N(C(=O)c1ccc(S(=O)(=O)N3CCCC3)cc1)CC2 (stereo unspecified)
-0.3%	COc1ccc(-c2nnc(C3CCN(S(=O)(=O)c4cccc(Cl)c4)CC3)o2)cc1
0.9%	CC(C)(C)OC(=O)N1CCC(c2c(C(=O)Nc3cccc(C(F)(F)F)c3)cnn2-c2ccc(F)cc2F)CC1
0.9%	CC1CCN(c2nc3ccccc3nc2C(F)(F)F)CC1
0.1%	CCOc1ccc(OCC)c(NC(=O)c2cnn(-c3ccc(F)cc3)c2C2CCN(C(=O)OC(C)(C)C)CC2)c1

(continued)
PINK1 modulator	mol
-2.2%	COc1ccc(-c2ccc(NS(=O)(=O)c3ccc(F)c(C(F)(F)F)c3)cc2)nn1
0.0%	COc1cc2cc(C#N)c(SCC(=O)OC(C)C)nc2cc1OC
11%	Cc1cc2n(n1)C(c1cc(C(C)(C)C)c(O)cc1O)Nc1ccccc1-2 (stereo unspecified)
3.2%	CC(C)CN(C)c1ccc(/C=C2\C=Cc3ccccc32)cc1
2.1%	COc1cc(OC)c(NC(=O)Cn2nc(C)n3cccc3c2=O)cc1Cl
2.6%	COc1cc(OC)cc(C(=O)Nc2nc(-c3nnn(-c4ccc(C)cc4)c3C)ns2)c1
1.3%	COc1ccc(CNC(=O)Cc2c(C)c3c(cc(C)c4c(C)c(C)oc43)oc2=O)cc1
-1.0%	O=C(CN1C(=O)COc2ccc(S(=O)(=O)N3CCOCC3)cc21)Nc1ccc(F)c(Cl)c1

Remaining list, next part.
PINK1 modulator	mol
2.1%	COc1cccc(NC(=O)c2ccc(-c3nc(COc4ccccc4)c(C)o3)cc2)c1
0.4%	O=C(Nc1cccs1)Nc1cc(C(F)(F)F)ccc1Cl
0.3%	CCN(CC)C(=O)Cn1c(=O)cc(C)c2c(C)nn(C)c21
1.8%	Cc1oc2ccc(O)c(CN3CCCCC3C)c2c1C(=O)Nc1ccccc1 (stereo unspecified)
3.1%	Cn1cc(C(=O)O)c(=O)c2cc(S(=O)(=O)N3CCOCC3)ccc21
0.0%	COc1ccc(-c2nc3sc(CCNC(=O)C(C)(C)C)c(C)n3n2)cc1
1.9%	CCCOc1ccc(NC(=O)CC2C(=O)N(c3ccccc3)C(=O)N2Cc2ccco2)cc1 (stereo unspecified)
1.3%	CN(C)c1ccc(CNC(=O)CCn2c(=O)c3cccn3c3ccc(F)cc32)cc1

Some of these compounds in order of heavy-atom count, ascending.
PINK1 modulator	mol
0.0%	COc1ccc(-c2nc3sc(CCNC(=O)C(C)(C)C)c(C)n3n2)cc1
1.8%	Cc1oc2ccc(O)c(CN3CCCCC3C)c2c1C(=O)Nc1ccccc1 (stereo unspecified)
2.1%	COc1cccc(NC(=O)c2ccc(-c3nc(COc4ccccc4)c(C)o3)cc2)c1
1.9%	CCCOc1ccc(NC(=O)CC2C(=O)N(c3ccccc3)C(=O)N2Cc2ccco2)cc1 (stereo unspecified)

Returning to the listing, repeating the 7 entries before the break.
PINK1 modulator	mol
0.4%	O=C(Nc1cccs1)Nc1cc(C(F)(F)F)ccc1Cl
0.3%	CCN(CC)C(=O)Cn1c(=O)cc(C)c2c(C)nn(C)c21
1.8%	Cc1oc2ccc(O)c(CN3CCCCC3C)c2c1C(=O)Nc1ccccc1 (stereo unspecified)
3.1%	Cn1cc(C(=O)O)c(=O)c2cc(S(=O)(=O)N3CCOCC3)ccc21
0.0%	COc1ccc(-c2nc3sc(CCNC(=O)C(C)(C)C)c(C)n3n2)cc1
1.9%	CCCOc1ccc(NC(=O)CC2C(=O)N(c3ccccc3)C(=O)N2Cc2ccco2)cc1 (stereo unspecified)
1.3%	CN(C)c1ccc(CNC(=O)CCn2c(=O)c3cccn3c3ccc(F)cc32)cc1
4.3%	Cc1ccccc1CNC(=O)C1CCN(S(=O)(=O)Cc2ccccc2)CC1
0.7%	Cc1ccc(S(N)(=O)=O)cc1NC(=O)c1c(-c2c(Cl)cccc2Cl)noc1C
2.7%	Cc1ccccc1NC(=O)CSc1nc2ccc(NC(=O)CCc3ccccc3)cc2s1
-4.9%	COc1ccc(C)cc1NC(=O)N1CCN(c2cc(-c3noc(C)n3)ccc2C)CC1
-1.5%	CCOCCCN1C(=O)c2ccccc2CC1(C)C(=O)NC1CCCCC1 (stereo unspecified)
1.0%	CN(C1CCCCC1)S(=O)(=O)c1ccc2c(c1)c(=O)c(C(=O)NCc1ccc(Cl)cc1)cn2C
-0.2%	O=C(CSc1n[nH]c(-c2ccc(F)cc2)n1)NCc1ccccc1Cl
1.2%	Cc1ccc(NC(=O)Cn2c(=O)n(CCc3ccccc3)c(=O)c3sc4ccccc4c32)cc1C

(next part)
PINK1 modulator	mol
2.0%	Cc1coc2c1c(C)cc1oc(=O)c(CC(=O)NCCc3ccc(Cl)cc3)c(C)c12
1.1%	COc1cc(C2c3c(oc4ccc(F)cc4c3=O)C(=O)N2c2nc(C)c(C)s2)cc(OC)c1OC (stereo unspecified)
3.7%	CCOC(=O)CSc1nc2ccc(NC(=O)c3ccccc3F)cc2s1
-1.7%	Cc1c(NC(=O)c2ccccc2)cc(C(C)C)c(O)c1S(=O)(=O)c1ccc(Cl)cc1
0.4%	CC(=O)Nc1c(C(=O)Nc2ccccc2F)oc2ccccc12
0.1%	COc1ccccc1N1CCN(CC(O)COc2cc(C)cc(C)c2)CC1 (stereo unspecified)
-0.8%	COc1ccccc1-c1ccnc(-n2ncc(C(=O)NCCc3cccnc3)c2C)n1
-0.7%	Cc1c(Cl)cccc1NC(=O)C(CCS(C)(=O)=O)N1Cc2ccccc2C1=O (stereo unspecified)

Following part.
PINK1 modulator	mol
1.5%	CC(C)CCN(Cc1ccco1)C(=O)c1cc2c(Cl)nc3ccccc3c2s1
0.4%	COc1cccc(-n2c(SCC(=O)Nc3cccc(Cl)c3)nc3c(oc4ccccc43)c2=O)c1
-0.1%	Cc1ccc(NC(=O)CCn2nc(C)c(S(=O)(=O)N3CCCCC3)c2C)cc1Cl
1.2%	O=S(=O)(c1ccc2ccccc2c1)n1nc(-c2ccco2)nc1NCc1ccc(F)cc1
-1.1%	CCc1ccc(NC(=O)c2sc3nc4c(cc3c2N)CN(CC)CC4)cc1
2.5%	CCCS(=O)(=O)N1CC(=O)N(c2cc(C)cc(C)c2)C(C)(C(=O)NC2CCCCCC2)C1 (stereo unspecified)
1.4%	Cc1ccc(C)c(S(=O)(=O)c2nnn3c2nc(NC2CCCC2)c2sccc23)c1
7.2%	COc1ccccc1-c1cc(C(=O)Nc2cc(OC)c(OC)c(OC)c2)no1

(cont.)
PINK1 modulator	mol
2.9%	COc1ccccc1CNc1nc(-c2ccco2)nn1C(=O)c1cc(OC)c(OC)c(OC)c1
-2.2%	O=C(COc1ccc2oc3c(c2c1)CCCC3)Nc1ccc(Br)cc1
0.5%	Cc1ccc(NC(=O)C2CCCN(c3nc4ccccc4s3)C2)c(C)c1 (stereo unspecified)
0.2%	Cc1ccc(NC(=O)C(Cc2c[nH]c3ccccc23)NC(=O)OCC(C)C)cc1 (stereo unspecified)
0.1%	COc1ccccc1/C=C/c1nc(C#N)c(NCCc2ccccc2)o1
1.0%	O=C(Nc1ccccc1C(=O)OCc1cc(=O)n2nc(C3CC3)sc2n1)c1cccc(Cl)c1
0.3%	COc1cc(NC(=O)CSc2nc3nc(C)c(Cc4ccc(C)cc4)c(C)n3n2)cc(OC)c1
-0.5%	CC(=O)Nc1ccc(NC(=O)C(NC(=O)C2CCC(C)CC2)C(C)C)cc1 (stereo unspecified)

(more compounds)
PINK1 modulator	mol
3.0%	COc1ccc(-c2cccc(NS(=O)(=O)c3ccc(C)s3)c2)nn1
-0.6%	CCOCCCn1c(=N)c(C(=O)NCc2ccccc2)cc2c(=O)n3ccccc3nc21
-0.7%	Cc1nn(C)c2c1c(-c1ccccc1)cc(=O)n2C(C)C(=O)NCCc1ccc(Cl)cc1 (stereo unspecified)
-0.8%	COc1cc2c(NC3CCN(C)CC3)nc(N3CCCCC3)nc2cc1OCCOCCN(C)C
0.6%	CCOC(=O)c1ccccc1NC(=O)CSc1nc2cn(CC)nc2c(=O)n1Cc1ccc(Cl)cc1
0.3%	Cc1ccc(NC(=O)c2ncoc2-c2ccco2)cc1Cl
1.0%	CCOc1cccc(C(=O)Nc2cc(C)c(O)c(-c3nc4ncccc4o3)c2)c1
2.2%	CCOC(=O)c1nnn(CC(=O)Nc2cc(C)cc(C)c2)c1C(=O)OCC

Additional records:
PINK1 modulator	mol
-0.7%	COC(=O)c1ccccc1NC(=O)c1cnn(-c2ccc(F)cc2)c1-n1cccc1
-0.2%	CCCS(=O)(=O)c1ncc(Cl)c(C(=O)Nc2scc(-c3ccccc3)c2C(=O)OCC)n1
-1.0%	CC(CNC(=O)C1CCN(C(=O)N2CCOc3ccc(Cl)cc32)CC1)c1ccccc1 (stereo unspecified)
-0.6%	CCOCCCN(C(=O)Nc1ccc(Cl)cc1)C1CCN(C(C)=O)CC1
1.0%	CCc1ccc(NC(=O)CN2C(=O)C(c3ccc(Cl)cc3)=NC23CCCCC3)cc1
0.4%	Cc1noc(Cn2c(=O)c3cc4c(cc3n(CC(=O)Nc3ccccc3Br)c2=O)OCO4)n1
-0.3%	COc1ccc(NCc2ccccc2-c2nnc(-c3ccccc3)o2)cc1Cl
3.1%	COc1ccc(Cl)cc1NC(=O)CSc1cn(CC(=O)N2CCCC2)c2ccccc12

The list continues:
PINK1 modulator	mol
-1.6%	CCOc1cccc2sc(N3CCN(C(=O)c4ccco4)CC3)nc12
0.6%	CSc1ccc(Nc2nn(-c3ccc(OC(F)(F)F)cc3)nc2C(C)=O)cc1
2.2%	CN(C(=O)CSc1nc2ccc(NC(=O)c3ccc(F)cc3)cc2s1)c1ccccc1
-0.4%	O=C(NC1CCCC1)c1cnn2c1NC(=C1CC1)C=C2C(F)F
0.0%	Cc1sc(-c2cc3ccccc3oc2=O)nc1-c1ccc(Cl)cc1
-0.9%	COc1ccc(C)cc1NC(=O)C1CCN(S(=O)(=O)c2ccc3[nH]c4c(c3c2)CCCCC4)CC1
-0.1%	COc1ccc(-c2noc(Cn3c(=O)c4ccccc4n(CC(=O)Nc4cccc(C(F)(F)F)c4)c3=O)n2)cc1
2.7%	COc1cccc(CNC(=O)c2ccc(-c3nc(CSc4ccccc4)c(C)o3)cc2)c1

(cont.)
PINK1 modulator	mol
0.7%	Cc1csc(SCC(=O)N2CCOc3ccc(C(O)C4CCCCC4)cc3C2)n1 (stereo unspecified)
1.7%	COc1ccc(NC(=O)c2cnn(-c3ccc(F)cc3F)c2C2CCN(C(=O)OC(C)(C)C)CC2)cc1Cl
2.9%	COc1ccc(CCNC(=O)c2ccc3c(c2)N(Cc2ccccc2)C(=O)c2ccccc2S3=O)cc1OC (stereo unspecified)
4.6%	COc1ccc(-c2csc(-c3c(N)c(C(=O)c4ccccc4)n4ccccc34)n2)cc1OC
-1.3%	O=C(Nc1ccc(Br)cc1F)C1CCN(c2nc3ccccc3[nH]2)CC1

Some of the compounds tested; count on the stated rates, not on these rows.
